CBX7 AlphaScr – blocks human CBX7 binding to H3K27me3 peptide. O95931. AlphaScreen His6-CBX7 / biotin-H3K27me3 peptide binding; hits give low values. normalised signal (fraction of DMSO) (test concentration not listed). 66,000 tested, 1.1% active; in the data active means normalised signal below about 0.5;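 further: 100 nL library stock added to about 20 µL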
Target sequence (O95931 whole entry, looked up): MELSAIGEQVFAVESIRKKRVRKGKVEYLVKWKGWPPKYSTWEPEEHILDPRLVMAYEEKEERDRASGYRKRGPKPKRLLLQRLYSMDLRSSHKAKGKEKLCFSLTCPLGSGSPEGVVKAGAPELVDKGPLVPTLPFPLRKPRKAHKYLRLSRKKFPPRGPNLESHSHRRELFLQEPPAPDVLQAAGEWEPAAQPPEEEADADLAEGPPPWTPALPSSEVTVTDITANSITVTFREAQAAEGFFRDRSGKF
CBX7 AlphaScr z-score – recorded beside CBX7 AlphaScr, whose call it bears; z-score; measured here: z-score of CBX7 signal; some inactives read as strong as hits; reference of the scale not given here;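 same signal on another scale; lower means less binding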
An asterisk follows results filed as active; & = joins results of further samples. A portion of the library (hit frequency here may not be typical).

item	mol	CBX7 AlphaScr	CBX7 AlphaScr z-score
1	O=C1CN(c2nc(-c3ccccc3)c3cc(Br)ccc3n2)c2ccccc2N1	0.98	-0.18
2	Cc1ccc(C(=O)Nc2ccccc2C(=O)N2CCC(Cc3ccccc3)CC2)cc1	1.2	2.1
3	N#CC1=C(N)Oc2cc(N)ccc2C1c1cccnc1 (configuration not stated)	1	0.45
4	Cc1ccc(-n2c3c(cc(C(=O)Nc4ccc(Cl)cc4)c2=O)C(=O)CC(C)(C)C3)cc1	1.4	4.5
5	CCCCc1ccc(N2CC(C(=O)Nc3nc4ccccc4s3)CC2=O)cc1 (configuration not stated)	1	0.051
6	CCN(CC)c1ccc(NC(=O)C2(S(=O)(=O)c3ccc(C)cc3)CC2)c(C)c1	0.73	-3.5
7	COc1ccc2nc(NC(=O)CCNS(=O)(=O)c3ccc4c(c3)CCC(=O)N4)sc2c1	1	1.5
8	CCOC(=O)c1c(NC(=O)CN2CCCCC2)sc(C)c1C	1.2	1.9
9	Cc1ccc(-c2nc(SCC(=O)NCC3CCCO3)c(-c3ccccc3)[nH]2)cc1 (configuration not stated)	0.98	-0.6
10	CC1CCCC(NC(=O)C2(C)CCC(=O)N2Cc2ccc(F)cc2)C1C (configuration not stated)	0.91	-1.1
11	O=C(c1cc(-c2ccc(F)cc2)on1)N1CCCCCC1	1.1	0.88
12	CC1CCN(c2nc3ccc(C(=O)NCCCN4CCCCC4C)cc3s2)CC1 (configuration not stated)	1.6	6
13	CCOCCn1cnc2sc(C(=O)Nc3ccccc3OC)c(C)c2c1=O	1	0.3
14	O=C(C1=CCN(S(=O)(=O)c2ccc(F)cc2)CC1)N1CCc2ccccc21	0.97	-0.89
15	Cc1cc(C(=O)Nc2cccc(C(F)(F)F)c2)n(-c2ccccc2)n1	1.1	0.8
16	COc1cc(OC)cc(C(=O)Nc2cc(-c3nc4cc(C)ccc4o3)ccc2Cl)c1	0.99	-0.14
17	CC1CC(C)CN(C(=O)CSc2nnc(-c3cccc(Cl)c3)o2)C1 (configuration not stated)	1.2	2.2
18	Cc1ccc2cc(CCNC(=O)c3c(-c4ccccc4Cl)noc3C)c(=O)[nH]c2c1C	1.1	1.1
19	CC1CCN(S(=O)(=O)c2ccc3ncn(CC(=O)Nc4ccc(F)c(Cl)c4)c(=O)c3c2)CC1	1.1	2.2
20	CCC1Oc2ccccc2N(CC(=O)NC2CCCCCCC2)C1=O (configuration not stated)	1.1	0.76
21	COc1ccc(CNC(=O)C(=O)NC(C)C(c2cccs2)N2CCN(C)CC2)cc1 (configuration not stated)	1.1	2.4
22	O=C(Nc1ccc(O)c(-c2nc3ccccc3s2)c1)c1cc2ccccc2o1	1.1&1	3.6&0.084
23	COc1ccc(OC)c(C(=O)c2coc3c2cc(O)c2ccccc23)c1	0.88	-2.4
24	COc1cc(OC)c(NC(=O)c2cc3c(-c4ccc(OC)c(OC)c4)nn(C)c3s2)cc1Cl	1	1.5
25	Cc1ccc2c(C)nc(Nc3ncc4c(n3)CCCC4=O)nc2c1	1.1	1.7
26	CCCCN(C)CC(=O)Nc1cc(N(C)C)nc2ccccc12	0.78	-0.44
27	CCCCOc1ccc(C(=O)Nc2ccc3nc(SCC(=O)NCCOc4ccccc4)sc3c2)cc1	1	0.73
28	CCCCN(C)CCNC(=O)c1cc(Nc2ccc(OC)cc2)nc2ccccc12	0.9	-2.1
29	CCc1ccccc1NC(=O)c1c(C)nn(-c2ccccc2)c1Cl	1.2	1.2
30	Cc1ccc(-c2nc(Nc3ccccc3C)sc2C)cc1	1	0.78
31	COc1ccc(Cl)cc1NC(=O)CSc1ccc2nnc(-c3ccccc3)n2n1	0.86	-1.7
32	O=C(CC1Sc2ccccc2NC1=O)Nc1ccc(Cl)cc1 (configuration not stated)	1.1	0.94
33	O=C(Nc1ccc(Br)cn1)c1cc2n(n1)C(C(F)(F)F)CC(c1cccs1)N2 (configuration not stated)	1	0.24
34	COC(=O)CNC(=O)CNC(=O)c1nn(-c2ccc(OC)cc2)c(=O)c2ccccc12	1	0.67
35	COc1ccc(OC)c(NC(=O)COc2ccc(C(C)(C)C)cc2)c1	0.91	-0.2
36	O=c1[nH]c2ncccc2c(=O)n1Cc1ccccc1Cl	1.2	4.1
37	COc1cccc(NC(=O)CSc2nc(NCC3CCCO3)c3ccccc3n2)c1 (configuration not stated)	1.1	0.14
38	CCOc1ccc(CCNC(=O)Cn2nc(Cc3ccncc3)c3ccccc3c2=O)cc1	1.2	2.2
39	CCc1ccc(N(CC)C(=O)Cc2c(C(=O)O)[nH]c3ccc(Cl)cc23)cc1	1	1
40	CC1CCN(c2c(NCc3ccc(C(=O)N(C)C4CCCCC4)cc3)c(=O)c2=O)CC1	1	1.9
41	CCOC(=O)N1CCC(NC(=O)CCc2c(C)nc3cc(-c4cccc(F)c4)nn3c2C)CC1	0.97	-0.48
42	COc1cc(OC)cc(-c2nc3nc(C)c(CCC(=O)NC4CCCCC4)c(C)n3n2)c1	0.96	-0.16
43	COc1ccc(-c2cc3cc(OC)c(OC)cc3c(Cc3cccc4ccccc34)n2)cc1C	0.96	-1.2
44	COc1ccc(CCNC(=O)CC2Oc3ccc(C)cc3NC2=O)cc1OC (configuration not stated)	0.95	-1.2
45	Cc1ccn2c(NC(=O)c3cc(Br)ccc3Cl)c(-c3ccccc3)nc2c1	1.3	2.5
46	CCCNC(=O)C1CCN(c2cc(C)nc3c(-c4ccc(Cl)cc4)c(C)nn23)CC1	1	0.024
47	O=C(Nc1ccc(-c2csc(Nc3ccccc3F)n2)cc1)c1ccccc1	0.99	-0.21
48	Cc1cc(Nc2ccc(F)cc2F)n2nc(C)nc2n1	0.92	-1.7
49	Cc1cccc2c1-c1sc(C(=O)NCCc3ccc(S(N)(=O)=O)cc3)cc1CO2	1	1.1
50	O=C(Nc1cccc(-c2nc3ccccc3o2)c1)c1cnccn1	1.2	2.8
51	COc1cc(OC)cc(-c2nc(-c3nonc3N)no2)c1	1.1	0.69
52	Cc1cc(C)cc(NS(=O)(=O)c2ccc3[nH]cc(C(=O)NCCC(C)C)c(=O)c3c2)c1	1	-0.028
53	Clc1ccccc1-n1ncnc1-c1ccc(Br)cc1	1	-0.059
54	O=C(O)c1ccc2c(c1)N(Cc1c(F)cccc1Cl)C(=O)c1ccccc1S2	1.1	1.3
55	CCOc1ccc(CN2C(=O)c3ccccc3Sc3ccc(C(=O)NCCOC)cc32)cc1	0.92	-0.34
56	Cc1cc(N2CCC(C(N)=O)CC2)nc2cc(O)ccc12	1	0.34
57	COc1ccc(NC(=O)c2cc(C3CC3)on2)cc1OC	0.95	-1.6
58	COc1cc(CN2CCN(Cc3ccc4ccccc4c3)CC2)cc(OC)c1OC	0.97	-0.79
59	CC(C(=O)NCc1ccccc1Cl)C1Sc2ccccc2N(Cc2ccccc2F)C1=O (configuration not stated)	1	-0.046
60	COc1cccc(CNc2cc(-c3nc4cc(C)cc(C)c4o3)ccc2C)c1O	1	0.78

New compounds follow
item	mol	CBX7 AlphaScr	CBX7 AlphaScr z-score
61	Cc1ccc(NC(=O)CS(=O)(=O)Cc2nc(-c3ccccc3C)oc2C)c(Cl)c1	0.96	-0.7
62	CCN(CC)CCCn1c(-c2ccc(Cl)cc2)cn2c3ccccc3nc12	0.91	-1
63	C=CCn1c(SCc2ccc(Cl)cc2)nc2cc(C(=O)N3CCC(C(N)=O)CC3)ccc2c1=O	0.95	-0.35
64	CCOc1ccccc1CNC(=O)c1ccc2c(c1)ncn2C1CCCC1	0.77	-2.5
65	Cc1cc(OCC(=O)Nc2ccc3oc(-c4ccccc4Br)nc3c2)cc(C)c1Cl	1.1	1.8
66	COCCCNC(=O)c1ccc2c(c1)N(Cc1ccccc1)C(=O)CS2	0.95	-0.69
67	CCOC(=O)N1CCC(NC(=O)c2cnn(-c3ccccc3)c2-n2cccc2)CC1	1	1.3
68	CCc1ccc(C2NC(=O)c3[nH]nc(-c4ccccc4)c32)cc1 (configuration not stated)	1	0.48
69	CCN1CCN(c2cc3c(nn2)Oc2ccccc2N3C)CC1	1.1	1.4
70	Cc1cc(C)c2nc(N3CCC(C(=O)NC4CCCCCC4)CC3)sc2c1	1.1	2.2
71	Cc1nn(Cc2cccc(Oc3ccccc3)c2)c(C)c1NC(=O)CCC(=O)O	0.82	-0.24
72	Cc1c(C(=O)NCCC2=CCCCC2)oc2ccc(S(=O)(=O)N3CCOCC3)cc12	0.87	-2.4
73	COc1ccccc1C(=O)NCCc1cc2ccc(C)cc2[nH]c1=O	1	0.41
74	Cc1nn(-c2ccccc2)c(CC(C)(C)C(=O)Nc2ccccc2)c1C(=O)O	1.1	2.7
75	O=C(Nc1c(-c2ccccc2)nc2ccccn12)c1cccnc1	0.97	-0.44

7 entries picked at random from those above, as already listed:
item	mol	CBX7 AlphaScr	CBX7 AlphaScr z-score
65	Cc1cc(OCC(=O)Nc2ccc3oc(-c4ccccc4Br)nc3c2)cc(C)c1Cl	1.1	1.8
69	CCN1CCN(c2cc3c(nn2)Oc2ccccc2N3C)CC1	1.1	1.4
74	Cc1nn(-c2ccccc2)c(CC(C)(C)C(=O)Nc2ccccc2)c1C(=O)O	1.1	2.7
72	Cc1c(C(=O)NCCC2=CCCCC2)oc2ccc(S(=O)(=O)N3CCOCC3)cc12	0.87	-2.4
66	COCCCNC(=O)c1ccc2c(c1)N(Cc1ccccc1)C(=O)CS2	0.95	-0.69
75	O=C(Nc1c(-c2ccccc2)nc2ccccn12)c1cccnc1	0.97	-0.44
64	CCOc1ccccc1CNC(=O)c1ccc2c(c1)ncn2C1CCCC1	0.77	-2.5

Going on with the list.
item	mol	CBX7 AlphaScr	CBX7 AlphaScr z-score
76	CCOc1ccc(CCNc2ccc3nnc(-c4ccccc4)n3n2)cc1OCC	1	0.33
77	O=C(c1ccc2c(c1)N(Cc1ccc(C(F)(F)F)cc1)C(=O)c1ccccc1S2)N1CCCCC1	0.93	-0.31
78	Cc1cc(C)c(NC(=O)C2CCCN(C(=O)c3cnn(-c4ccccc4)c3-n3cccc3)C2)c(C)c1 (configuration not stated)	0.99	-0.73
79	Cn1nc(-c2ccc(C(=O)NCc3cccnc3)cc2)c2ccccc2c1=O	1.1	0.89
80	CC(C)Cc1nnc(NS(=O)(=O)c2ccc(Cl)cc2)s1	0.98	-0.81
81	COc1ccc(C(=O)Nc2c(C(=O)c3ccc(C)cc3)oc3ccccc23)cc1OC	1.2	0.84
82	COc1ccccc1CN1CCN(Cc2ccc(C(F)(F)F)cc2)CC1	0.98	-0.39
83	CCCCCOc1ccc(C(=O)N(Cc2ccc(C(C)C)cc2)C2CCS(=O)(=O)C2)cc1 (configuration not stated)	0.97	-0.29
84	COc1ccc(CCNC(=O)c2cc(-c3ccc(Cl)c(Cl)c3)on2)cc1OC	0.97	-0.73
85	Cc1nnn(C23CC4CC(CC(C(=O)Nc5ccc(Br)cc5)(C4)C2)C3)n1	1	1.5
86	CC(C)c1ccc(CN(C(=O)C2COc3ccccc3O2)C2CCS(=O)(=O)C2)cc1 (configuration not stated)	1.1	1.5
87	COc1ccc(OC)c(C2CC(=O)Nc3cc4c(cc32)OCO4)c1 (configuration not stated)	0.92	-3.3
88	CC(C)COc1ccc(C(=O)Nc2ccc(S(=O)(=O)Nc3ncccn3)cc2)cc1	0.86	-0.51
89	Cc1cc2cc(CCNC(=O)Cc3ccc(F)cc3)c(=O)[nH]c2cc1C	0.98	-0.75
90	CCc1ccc(NC(=O)Cn2c(SCc3ccc(F)cc3)nc3ccncc32)cc1	1.1	1.3
91	CCOc1ccc(C(=O)Nc2c(C(=O)c3ccc(Cl)cc3)oc3ccccc23)cc1	1	0.0077
92	Fc1ccc(CNc2ncnc3c2cnn3-c2ccc(Cl)cc2)cc1	1.1	0.18
93	Cc1ccccc1-c1nc(CS(=O)(=O)CC(=O)NCCN(C)C)c(C)o1	1.2	3.6
94	COc1ccc(NC(=O)c2oc3ccc(S(=O)(=O)N(C)C4CCCCC4)cc3c2C)c(OC)c1	0.96	-1.5
95	Cc1noc(C)c1S(=O)(=O)Nc1ccccc1F	1.1	3.4
96	O=C1CCc2cc(S(=O)(=O)N3CCCC3C(=O)N3CCN(c4ccccc4F)CC3)ccc2N1 (configuration not stated)	1.1	3
97	CCOc1ccccc1Nc1cc(C)nc2c(C)cc(C)cc12	1	0.29
98	CN(C)c1ccc(CNC(=O)C(NS(=O)(=O)c2ccc3c(c2)CCC(=O)N3)c2ccccc2)cc1 (configuration not stated)	0.97	-1.2
99	Cc1ccc(-c2cn(-c3ccccc3)c(S(=O)(=O)CC(=O)Nc3ccc(Cl)cc3)n2)cc1	0.83	-1.7
100	Cc1cccc(CSc2nc3ccncc3n2Cc2nc(-c3cccc(Cl)c3)oc2C)c1	0.94	-0.89
101	COc1ccccc1-n1cc(-c2ccc(C)cc2)nc1S(=O)(=O)CC(=O)Nc1cccc(Cl)c1	0.81	-1.9
102	O=C(CN1C(=O)COc2ccc(S(=O)(=O)N3CCCC3)cc21)NC1CC1	0.96	-1.3
103	CCOc1ccc(CCNC(=O)CCCc2cc(-c3ccc(OC)cc3)on2)cc1OCC	0.93	-1.4
104	Cc1ccc(-c2csc(NC(=O)c3ccc(S(=O)(=O)N(C)c4ccccc4)cc3)n2)c(C)c1	0.86	-2.4
105	Cc1nc2nc[nH]n2c(=O)c1NS(=O)(=O)c1ccc2ccccc2c1	1	0.2

Bioassay records: PubChem, several laboratories
